PrP UTR inh = inhibition of PrP 5' UTR reporter expression; AID 488862; 340,000 compounds, 0.35% hits; cell-based PrP 5' UTR mRNA reporter, plate reader; inhibition, % (concentration not given with the values);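 active = every replicate at 50% or more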;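 note: 0 = median of the neutral control wells; tested in H4 reporter cells; numbers are from one replicate; inactives centre near -14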
Sa ugtP lethal = compounds lethal to S. aureus RN4220 ugtP deletion mutant; OD600 growth, 16 h; some inactives read as strong as hits; growth inhibition, % (test concentration not listed); 330,000 compounds, 0.54% hits; AID 1259309;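 active = z-score under -3 and OD600 up to 0.15 on both plates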;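 note: plate controls were untreated wells for no effect and antibiotic for full effect; wells of about 80 µL received 100 nL stock; the first replicate is given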
Mtb hypoxia rep = inhibitors of hypoxia-regulated fluorescent reporter in Mycobacterium tuberculosis | 300,000 compounds, 0.1% hits | M. tuberculosis hypoxia-regulated fluorescent reporter, fluorescence | fluorescence inhibition, % (concentration not given with the values);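 active = 35 to 45% if threefold the growth effect, above 45% if 1.5-fold the growth effect; inactive = the rest, general growth blockers included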;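 note: wells of about 50 µL received 100 nL stock; 0% = vehicle wells and 100% = reference inhibitor wells; whole bacteria with a GFP reporter of the hypoxia response; strong numbers were not always called active; many hits fall short of the cut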
BJeLR lethal = BJeLR cell viability loss | 300,000 compounds, 0.17% hits | BJeLR (HRASV12) viability, CellTiter-Glo ATP luminescence, 48 h; reference of the scale not given here | inhibition, % (concentration not given with the values);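 active = replicate mean above 50%; inconclusive = above 50% but judged a plate artefact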;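 note: 50 nL library stock added to about 25 µL; numbers are from one replicate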
Autofluor counter = counter-screen for toxin protease inhibitors: compound fluorescence | AID 624483 | compound autofluorescence counterscreen, microsphere flow cytometry; stronger effect = higher value | 360,000 compounds, 3.1% hits | fluorescence intensity (no concentration beside the values);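 active = at least 3 SD above the mean of all compounds, about 16000 in these data; inconclusive = too few beads counted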;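 note: 100 nL of 1 mM stock went into each well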
Sa RN4220 lethal = kills Staphylococcus aureus RN4220; S. aureus RN4220 growth, OD600, 16 h; inhibition, % (test concentration not listed); 330,000 compounds, 0.33% hits;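 active = z-score of -3 or lower and OD600 up to 0.18 on both plates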;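 note: plate controls were untreated cells for no effect and reference antibiotic for full effect; stock transfer was 100 nL into about 80 µL; one replicate is shown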
Mtb hypoxia rep growth = further read-out of Mtb hypoxia rep, marked with its call; growth inhibition, %; measured here: M. tuberculosis growth (absorbance);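 0% = vehicle and 100% = reference antibiotic; read after six days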
Starred values were filed as active, the others as inactive; ? = inconclusive; . = no result given.

SMILES | PrP UTR inh | Sa ugtP lethal | Mtb hypoxia rep | Mtb hypoxia rep growth | BJeLR lethal | Autofluor counter | Sa RN4220 lethal
CCOc1ccccc1NC(=O)c1nnn(CC(=O)Nc2ccc3c(c2)OCO3)c1N | -22 | -1 | 4 | -2 | -8 | 4467 | -1.4
Cn1cnnc1Sc1cc(N2CCN(S(=O)(=O)c3ccc4ccccc4c3)CC2)ccc1[N+](=O)[O-] | 4 | -15 | 0 | 1 | -8 | 2208 | 2.3
CCC(C)NC(=O)c1ccccc1NC(=O)CN1C(=O)c2ccccc2S1(=O)=O (stereo unspecified) | -24 | 5 | . | . | -4 | 5452 | 0.3
O=C(O)c1ccc(Cl)c(S(=O)(=O)Nc2ccc(S(=O)(=O)Nc3cccc(Cl)c3)cc2)c1 | 4 | -3 | -7 | 2 | -7 | 4505 | -2.3
O=C(COc1ccccc1Cl)N1CCN(c2ccc(F)cc2)CC1 | -18 | 0 | 12 | 16 | -1 | 7211 | 3.7
Cc1ccc(S(=O)(=O)NN=Cc2cccnc2)cc1 | . | 6 | 6 | 4 | . | . | 6.5
CC(=O)COC(=O)C1CC(=O)N(c2ccc(C)c(C)c2)C1 (stereo unspecified) | -19 | 4 | -6 | 0 | -1 | 2587 | 2.8
Cc1occc1-c1nnc(SCC(=O)N2CCOCC2)n1CC(C)C | -2 | 4 | . | . | 2 | 4233 | 3.6
O=S(=O)(CCOc1ccccc1)N1CCOCC1 | -27 | 9 | 11 | 2 | -2 | 1952 | 1.9
O=C(CN1CCN(S(=O)(=O)c2cc(Br)ccc2Br)CC1)NCc1ccccc1Cl | 9 | -11 | -4 | -4 | . | 3146 | -1.8
S=c1[nH]nc(COc2ccccc2)n1/N=C/c1cccc(Br)c1 | -17 | . | . | . | -1 | 2997 | .
CCOc1ccc(CCNC(=O)c2ccc(Cl)c(S(=O)(=O)N3CCOCC3)c2)cc1OCC | -15 | 6 | 0 | 8 | -10 | . | 4.7
COc1cccc(OC)c1C(=O)Nc1cccc(C(=O)Nc2cccc(C(=O)O)c2)c1 | -24 | 3 | 4 | -10 | 0 | 3736 | 3.9
COc1ccccc1CNC(=O)COC(=O)c1nccnc1N | -20 | -2 | 9 | 0 | -1 | 6652 | 2.9
CCC(C(=O)NCC1CCCO1)N(Cc1ccc(F)cc1)C(=O)CNS(=O)(=O)c1ccccc1 (stereo unspecified) | -12 | . | . | . | -1 | 3711 | .
Cc1ccccc1N1CCN(C(=O)c2ccccc2NC(=O)c2ccccc2C(=O)O)CC1 | -20 | 9 | 7 | -4 | -3 | 3444 | 4.3
O=C(OCC(=O)N1CCCC1)c1cncc(Br)c1 | -7 | 19 | 6 | 1 | -4 | 2398 | 21
COc1cc(C=NNc2nc(Nc3ccccc3)nc(N3CCOCC3)n2)ccc1OC(=O)c1ccco1 | . | -26 | 1 | 2 | . | . | 1.5
CON=CNC(=O)N1OCC2COc3ccc4ccccc4c3C21 (stereo unspecified) | . | 1 | 14 | 8 | . | . | 2.9
Cc1cc(C)c(C#N)c(SCS(=O)Cc2ccc(Cl)cc2)n1 (stereo unspecified) | -23 | -2 | 13 | 9 | -9 | 8141 | 6.5
COc1ccc(C(=O)Nc2ccc3oc(-c4cccnc4)nc3c2)cc1OC | 23 | 3 | . | . | 2 | 4486 | 6.6
CC(C)(Oc1ccc(Cl)cc1)C(=O)Nc1c2c(nn1C(C)(C)C)CS(=O)(=O)C2 | -13 | . | . | . | 0 | 5403 | .
CCOc1ccc(/C=C2\SC(=S)N(NC(=O)c3ccncc3)C2=O)cc1OC | . | 6 | 20 | 4 | 6 | . | 6.6
O=C(CSc1nnc(-c2ccccc2)o1)N1CCCC1 | -36 | 8 | 14 | 7 | -1 | 5946 | 0.1
COc1cc(C=NNC(=O)CNS(=O)(=O)c2ccc(C)cc2)cc(OC)c1OC | . | 7 | -11 | -1 | . | . | 4.7
CCOc1ccc(-n2c(-c3ccccc3)c[n+]3c2CCCCC3)cc1 | -9 | 8 | 20 | 3 | 12 | 2421 | 3.5
Cc1cc(C)n2nc(SCC(=O)N(C(C)C)C(C)C)nc2n1 | -25 | -3 | -1 | 1 | 14 | 4238 | 5.3
O=C(NC1CCCCC1)C(c1ccco1)N(C(=O)c1csnn1)c1ccc(Cl)cc1 (stereo unspecified) | -17 | -2 | 14 | 16 | 4 | 3854 | 1.8
O=C(C1CC1)N1N=C(c2cccc(Br)c2)CC1(O)C(F)(F)F (stereo unspecified) | -20 | 40 | -2 | -1 | 1 | 3587 | 37
CC(C)Cn1c(O)c2ccc(C(=O)N=NC(=O)c3cccnc3)cc2c1O | -19 | -3 | 7 | -1 | -13 | 2031 | 1.3
COc1ccc(S(=O)(=O)N2CCCCCC2)cc1C(=O)N(C)Cc1ccc(F)cc1 | 0 | 12 | 4 | -6 | -10 | 4634 | 0.9
NC(=S)Nc1cc(Cl)ccc1Cl | -22 | 4 | 12 | 16 | -1 | . | -1.7
O=C(/C=C/c1cccc([N+](=O)[O-])c1)NCc1ccc2c(c1)OCO2 | -25 | -1 | . | . | -8 | 2605 | 0.4
COc1ccc(S(N)(=O)=O)cc1C(=O)OCCCC(=O)c1ccccc1 | -21 | 8 | 5 | -9 | . | 3637 | 4.3
O=C(CSc1ccc2c(c1)OCCO2)NC(=O)NC1CCCC1 | -13 | 7 | 5 | -2 | -9 | 9163 | 1.7
NC(CSc1nc(-c2ccccc2)c(-c2ccccc2)o1)=NO | . | 0 | 5 | 18 | . | . | -7.9
CC(NC(=O)c1ccco1)C(=O)N1CCc2ccccc2C1 (stereo unspecified) | -30 | 7 | 1 | 8 | -4 | 7697 | 5.7
COc1ccc(S(=O)(=O)N2CCN(c3ccc4nnc(-c5ccccc5)n4n3)CC2)cc1 | -35 | 24 | 0 | 2 | 1 | 5194 | 1.6
O=C(NC(=S)Nc1ccc(NC(=O)c2cccs2)cc1)c1cc2ccccc2o1 | -1 | . | . | . | 4 | 2011 | .
CN(c1ccc(C(=O)Nc2ccc(Cl)cn2)cc1)S(=O)(=O)c1ccccc1 | -28 | 4 | 7 | 13 | 7 | 3386 | 12
CC(NC(=S)Nc1cccc(C(F)(F)F)c1)C(C)(C)C (stereo unspecified) | -18 | -12 | -3 | 3 | 2 | 3351 | 0.0
COc1ccc(OC)c(/C=C2\SC(=S)N(NS(=O)(=O)c3ccccc3)C2=O)c1 | -13 | 5 | -10 | 7 | -1 | 4041 | 33
CCOC(=O)c1c(C)c(C(=O)Nc2ccc3c(c2)OCCO3)c(C)n1CC | -38 | 2 | 7 | 9 | 1 | 9820 | 0.5
CN(CC(=O)Nc1cccc(F)c1)C(=O)c1cccc(-n2cccc2)c1 | -14 | -1 | 5 | 3 | -4 | 5764 | 0.8
CC1CCN(CCCn2c(SCC(=O)NC3CCCC3)nc3ccccc3c2=O)CC1 | -9 | 3 | 4 | 6 | -2 | 7319 | 2.5
O=C(NCc1n[nH]c(=S)n1Cc1ccccc1)c1ccccc1 | -44 | 3 | 0 | 6 | 0 | 4204 | -0.2
COc1cccc(Nc2nc(C)cc(C)c2C(N)=O)c1 | -9 | 11 | 12 | 6 | -2 | 2980 | -1.6
CCCn1c(=O)c(C(=O)N/N=C/c2ccc(F)cc2)c(O)c2ccccc21 | -6 | . | . | . | -4 | 4295 | .
CC(C)[C@@H](CO)NC(=O)c1ccc2c3n(nc2c1)-c1ccc(Cl)cc1CO3 | -46 | . | . | . | 16 | 2971 | .
CC(C)c1ccc(Nc2ncccc2C(=O)O)cc1 | -91 | -21 | 1 | -6 | -4 | 2246 | 14

The list continues.
SMILES | PrP UTR inh | Sa ugtP lethal | Mtb hypoxia rep | Mtb hypoxia rep growth | BJeLR lethal | Autofluor counter | Sa RN4220 lethal
CC(C)(C)C1CCC(C(=O)NCCc2ccc(S(N)(=O)=O)cc2)CC1 (stereo unspecified) | -8 | 7 | 4 | 2 | 4 | 3796 | 1.9
CCc1nc(SCC(=O)Nc2ccnc3ccccc23)n[nH]1 | -12 | 1 | 5 | -2 | -4 | 11068 | 8.1
CCN1C(=O)c2ccccc2Sc2ccc(C(=O)O)cc21 | -12 | -4 | 7 | -3 | -3 | 3706 | -1.5
Cc1ccccc1NC(=S)NCC(c1cccnc1)N(C)C (stereo unspecified) | -21 | 7 | 8 | 3 | -2 | 1991 | 5.7
CC(C)(C)c1nc(C(C)(C)C)c(Br)c(=O)[nH]1 | -5 | -13 | -8 | -7 | 0 | 2437 | 2.9
Cc1cc(C)nc(NS(=O)(=O)c2ccc(N/C=C3\CCCC3=O)cc2)n1 | -31 | 3 | . | . | -3 | 5013 | -4.3
CCCc1[nH]nc2c1C(c1ccccc1OCC)C(C#N)=C(N)O2 (stereo unspecified) | -17 | -7 | -7 | 8 | 4 | 4537 | 1.7
CCCOc1ccc(C(=O)CCC(=O)OCC(=O)Nc2cccc(S(N)(=O)=O)c2)cc1 | -9 | 9 | 7 | 7 | . | 5891 | 3.8
CCOC(=O)c1nn(-c2ccc(Cl)cc2)c2nc(CC)c(C#N)c(=O)n12 | -18 | -2 | 1 | -4 | 4 | 16274* | 4.7
O=C(NCCc1ccccc1)c1c(O)c2ccccc2[nH]c1=O | -29 | 0 | -4 | 6 | -17 | 3179 | 2.9
Clc1cccc(COn2c(-c3ccc(Cl)cc3Cl)nc3ncccc32)c1 | -7 | -15 | 5 | 14 | 4 | 3215 | 24
Cc1ccc(-n2nc3c(N4CCC(C(=O)NCc5ccc(C)o5)CC4)nnc(C)c3c2C)cc1 | -17 | -1 | -4 | 6 | -16 | 7465 | -14
CCOCCCNC(=O)C(NC(=O)c1ccc(NC(C)=O)cc1)c1ccccc1 (stereo unspecified) | -12 | -2 | 3 | 0 | 1 | 2052 | -4.1
CSc1cccc(CN2CCC(Oc3ccc(C(=O)N4CCCCC4)cc3)CC2)c1 | -13 | 3 | 4 | 1 | -6 | 6961 | -3.8
CCN(CC)C(=S)SCC(=O)NC12CC3CC(CC(C3)C1)C2 | -13 | 3 | 4 | 0 | -2 | 2169 | -4.5
Cc1cc(=O)[nH]c(SCC(=O)Nc2ccc(F)cc2)c1C#N | -7 | 12 | -7 | 5 | 10 | 4137 | 14
COc1cc(C=O)ccc1OCC(=O)NC(C)(C)C | 8 | 1 | 1 | -3 | -5 | 1987 | 4.3
Cc1cc(C(=O)NN=Cc2c(C)nn(-c3ccccc3)c2C)c(C)o1 | . | 4 | -1 | -2 | . | . | -2.1
O=C(COc1ccc2ccccc2c1Br)Nc1cccnc1 | -18 | -22 | -1 | 5 | 1 | 5238 | -3.8
CCN(CC)S(=O)(=O)c1cccc(C(=O)NN=C2CC(=O)CC(C)(C)C2)c1 | . | 19 | 4 | 17 | . | . | 6.7

Some of these compounds in order of length of the SMILES, smallest number first:
SMILES | PrP UTR inh | Sa ugtP lethal | Mtb hypoxia rep | Mtb hypoxia rep growth | BJeLR lethal | Autofluor counter | Sa RN4220 lethal
NC(=S)Nc1cc(Cl)ccc1Cl | -22 | 4 | 12 | 16 | -1 | . | -1.7
O=C(NCCc1ccccc1)c1c(O)c2ccccc2[nH]c1=O | -29 | 0 | -4 | 6 | -17 | 3179 | 2.9
CCN(CC)C(=S)SCC(=O)NC12CC3CC(CC(C3)C1)C2 | -13 | 3 | 4 | 0 | -2 | 2169 | -4.5
CCCc1[nH]nc2c1C(c1ccccc1OCC)C(C#N)=C(N)O2 (stereo unspecified) | -17 | -7 | -7 | 8 | 4 | 4537 | 1.7
Clc1cccc(COn2c(-c3ccc(Cl)cc3Cl)nc3ncccc32)c1 | -7 | -15 | 5 | 14 | 4 | 3215 | 24

(next part)
SMILES | PrP UTR inh | Sa ugtP lethal | Mtb hypoxia rep | Mtb hypoxia rep growth | BJeLR lethal | Autofluor counter | Sa RN4220 lethal
CC1CCN(C(=O)CSc2nc(N)c3c4c(sc3n2)CN(C)CC4)CC1 | 1 | -12 | 5 | 14 | 4 | ? | -21
COc1ccc(-c2nnc(SCC(=O)N3CCCCC3)o2)cc1 | -46 | -8 | 11 | 13 | -1 | 5483 | 3.4
Cc1ncc([N+](=O)[O-])n1CCOC(=O)c1cc(Cl)cc(Cl)c1N | -24 | -5 | 10 | 10 | -1 | 2883 | 11
CC(OC(=O)Cc1c[nH]c2ccccc12)C(=O)N(C)c1ccccc1 (stereo unspecified) | -9 | 7 | 5 | 4 | 3 | 4503 | 5.8
CCN1C(=O)N[C@@H](c2cccc(F)c2)C(C(=O)OC)=C1C | -28 | . | . | . | -1 | 4283 | .
CN1C(=O)N(C)C(=O)C(CCc2ccncc2)(CCc2ccncc2)C1=O | -15 | 7 | 1 | 6 | 8 | 4473 | -1.6

Screening data (PubChem BioAssay)
